BasE inh – inhibitors of Acinetobacter baumannii siderophore enzyme BasE. AID 485350. 0.1% of 84,000 active. purified BasE, fluorescence polarization binding displacement. inhibition, % (no concentration beside the values);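 active = both replicates above 25% with normal brightness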;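 also: 0% = negative plate control signal and 100% = positive plate control signal; stock transfer was 100 nL into about 30 µL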
KSHV LANA nucl – inhibitors of KSHV LANA binding to nucleosomes; FITC-LANA1-23 / chicken nucleosome fluorescence polarization; active compounds read low; z-score (no concentration beside the values); 0.3% of 51,000 active; AID 720717;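 active = both repeat wells score below -2 in polarization z-score versus plate sample wells, excluding overly bright wells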;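 also: 100 nL library stock added to about 30 µL; numbers are from one replicate; some results filed as inactive read as strong as hits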
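Assay system: FITC-LANA peptide and chicken nucleosomes; input: 240 nM purified chicken nucleosomes (480 nM peptide binding sites), final; also added: 50 nM FITC-LANA1-23 probe; medium: TEN-BT buffer, pH 7.5; doses: pin-transferred compound, 100 nL; times: 10–45 min, room temperature; technique: fluorescence polarization; replication: duplicates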
Numbers without * were called inactive; x = no result given; & = joins results of further samples.

# | canonical_smiles | KSHV LANA nucl | BasE inh
1 | COC(=O)C(O)(c1ccc(N)c(OC)c1)C(F)(F)F (configuration not stated) | -0.19 | 0.2
2 | CCOC(=O)c1nc(C)sc1-c1ccnn1S(=O)(=O)c1ccc(C)cc1 | -1 | -1.5
3 | Cn1c(SCCc2ccccc2)nnc1-c1ccc2c(c1)OCO2 | 0.77 | -1.5
4 | Cc1onc(-c2ccccc2)c1C(=O)C(C#N)c1nc(-c2ccc(F)cc2)cs1 (configuration not stated) | x | -6.6
5 | C/C(CCc1oc2ccc(Br)cc2c1-c1ccc(C)o1)=N\O | -0.3 | 3.4
6 | Cc1cc2c(cc1S(=O)(=O)N(C)Cc1ccccc1)n(C)c(=O)c(=O)n2C | 0.25 | 0.6
7 | CNS(=O)(=O)c1ccc(Br)cc1I | x | 2.3
8 | Cc1ccc(-c2csc(N3CCC(NS(=O)(=O)c4ccc5c(c4)OCCO5)CC3)n2)cc1 | 0.68 | -0.7
9 | Cc1cc(/C=C2/SC(=O)N(c3ccccc3)C2=O)c(C)n1-c1cccnc1 | x | 2.1
10 | Cc1ccc(-c2nc(CSCC(=O)NCCN3CCN(c4cccc(Cl)c4)CC3)c(C)o2)cc1 | 0.17 | -1.1
11 | O=C(NCCCN1CCCC1)c1cc2ccc3cccnc3c2[nH]1 | x | -11
12 | CNS(=O)(=O)c1ccc(NC(=O)CCC(=O)c2ccc(C)cc2)cc1 | x | -2.0
13 | N#CSCC(=O)c1ccc(Br)cc1 | -0.32 | 0.0
14 | CCCCN(Cc1cc2ccccc2[nH]c1=O)S(C)(=O)=O | -0.52 | -0.4
15 | O=C(Nc1ccc2c(c1)OCO2)C1Sc2nc(-c3ccccc3)cn2N=C1c1ccccc1 (configuration not stated) | x | -1.4
16 | Cc1nn(-c2ccccc2)c(CSCC(=O)Nc2ccc3c(c2)OCO3)c1C#N | x | 1.4
17 | CC1=NN(c2ccc(Cl)cc2)C(=O)C1 | -0.57 | 0.3
18 | COc1ccc2c(c1)c1nc(SC)n(C)c(=O)c1n2C | -0.74 | 0.6
19 | CC(=O)Oc1cccc(-c2nc(C#N)c(N)o2)c1 | x | 2.4
20 | O=c1[nH]c(O)c(C=NCC2CCCCC2)c(=O)[nH]1 | x | 4.6
21 | CCCn1c(N)cc(=O)n(C)c1=O | x | -0.1
22 | CC1(C)CC(=O)C2=C(C1)OC1=C(C(=O)CC(C)(C)C1)C2c1ccc2c(c1)OCO2 | -0.011 | 0.2
23 | N#Cc1c(-c2ccco2)cc(-c2ccccc2)nc1N | 0.7 | -7.5
24 | CCn1c(CN2CCc3sccc3C2c2cccs2)nc2cc(S(=O)(=O)N(C)C)ccc21 (configuration not stated) | x | -0.7
25 | CCOC(=O)C1=C(CSc2nnc(SCC)s2)NC(=O)NC1CC (configuration not stated) | x | -0.4
26 | CC1CC(=O)N(CC(=O)NCc2ccc3c(c2)OCO3)c2ccccc2S1 (configuration not stated) | 0.45 | -0.3
27 | O=c1cc(Cl)nc2ccc(Cl)cn12 | x | -0.8
28 | Cc1cc(Cl)c(S(=O)(=O)N(C)CC(=O)O)cc1OCC(N)=O | 0.52 | -1.1
29 | NS(=O)(=O)c1ccccc1NC(=O)NCc1ccc(F)cc1 | 2.9 | -2.6
30 | Cc1ccc(/C=C2\SC(=O)NC2=O)o1 | -0.28 | x
31 | CC(=O)N1CCN(C(=O)/C(C#N)=C/c2ccccc2)CC1 | x | 0.3
32 | O=C(O)COc1ccc(/C=N/O)cc1Br | 0.4 | 0.9
33 | COc1cc2c(cc1NC(=O)c1ccccc1)oc1ccccc12 | x | 2.0
34 | CN(CC(=O)Nc1ccc2c(c1)OCO2)Cc1ccccc1 | 0.53 | -2.1
35 | COCn1c(-c2ccccc2)nc2ccccc21 | x | 3.1
36 | Cc1cc(NC(=S)NCc2ccccc2)n[nH]1 | x | 0.7
37 | CN1CCN(C(=O)c2ccc(/C=C3/SC(=S)N(C)C3=O)cc2)CC1 | 0.43 | 0.8
38 | COc1ccccc1C1=NOC(C(=O)N2CCCC2)C1 (configuration not stated) | -1.5 | 1.5
39 | O=C(NCc1ccccc1)C1CCCN(c2ncccn2)C1 (configuration not stated) | -0.67 | -1.7
40 | CC1Cc2ccccc2N1CC(=O)NCCCc1ccccc1 (configuration not stated) | x | 2.6
41 | N#CCCN(Cc1cccnc1)C(=S)NC1CC2C=CC1C2 (configuration not stated) | x | 1.8
42 | CCc1cccc(C)c1NC(=O)Nc1ccc(N2CCCCC2)cc1 | 0.36 | x
43 | CC(C)(C)OC(=O)N1CCN(c2ccc(NC(=O)Cn3nnc(-c4ccccc4)n3)cc2)CC1 | -1.2 | 0.3
44 | COCCn1c(C)cc(C(=O)Cn2cnc3c(cnn3C)c2=O)c1C | x | -1.4
45 | CC(C)NC(=O)Cn1ccc2ccc(C#N)cc21 | -1.4 | -0.7
46 | CCCn1c(=O)c(C(N)=O)cn(C2CC2)c1=O | 1.3 | 0.2
47 | CC1=CC(=O)C2=C(C)CC[C@@H]3[C@H](OC(=O)[C@H]3C)[C@@H]12 | -0.58 | -1.3
48 | C[C@H](NS(=O)(=O)c1ccccc1)C(=O)Nc1ccc(S(=O)(=O)N2CCCC2)cc1 | x | -5.3
49 | COc1ccc(OC)c(CCNC(=O)C2CCCN(c3ncnc4onc(C)c34)C2)c1 (configuration not stated) | x | -4.9
50 | O=C(Nc1ccccc1)n1nccc1-c1cc(-c2ccccc2)no1 | 0.078 | 1.9

Other results.
# | canonical_smiles | KSHV LANA nucl | BasE inh
51 | CC1=NN(c2ccccc2)C(=S)/C1=C\N1CCCCC1 | x | -0.7
52 | Cc1cc(C)c2oc(C(=O)N3CCN(c4cccc(Cl)c4)CC3)cc(=O)c2c1 | -1.6 | -2.9
53 | CCCCn1cc(/C=N/NC(=O)c2cc3cc(OC)ccc3n2C)c2ccccc21 | -0.47 | 2.7
54 | CCc1ccc(C(=O)OCC(=O)N2CCCc3ccccc32)cc1 | x | 0.4
55 | Cc1cc(C)n(CCCNC(=O)CSc2nc(C)c(C)n2C2CCCCC2)n1 | x | -0.2
56 | CC[N+](CC)(CC(=O)Nc1c(C)cccc1C)Cc1ccccc1 | -0.18&1.9 | -1.3
57 | COCC(=O)Nc1cccc(C(F)(F)F)c1 | -0.84 | 1.1
58 | CC(C)C(C)(C#N)NC(=O)CSc1nnc(SCc2ccc(Cl)cc2)s1 (configuration not stated) | x | 1.9
59 | CC1=C(C(=O)NN)Sc2ccccc2N1 | x | 3.1
60 | CC(=O)N1c2ccc(S(=O)(=O)N(C)Cc3ccco3)cc2CC1C (configuration not stated) | -0.98 | 0.5
61 | CC(C)N(C(=O)N1CCC(c2ccccc2F)CC1)C(C)C | -0.36 | 0.5
62 | O=C(COC(=O)c1ccccc1)Nc1ccc2c(c1)OCO2 | 0.44 | 0.8
63 | CN(NS(=O)(=O)c1ccc(C(F)(F)F)cc1)c1cnn(C)c(=O)c1Cl | -0.087 | -0.4
64 | CCOC(=O)N1CCc2c(sc(N)c2C#N)C1 | 0.77 | x
65 | CCOC(=O)C(C#N)=C1SC2CS(=O)(=O)CC2S1 (configuration not stated) | -0.39 | 1.8
66 | O=C(Cn1c(=O)c2c(ncn2Cc2ccccc2)n(Cc2ccccc2)c1=O)NC1CC1 | x | 0.3
67 | CC1C(O)C(C)C(c2ccccc2)N(C)C1c1ccccc1 (configuration not stated) | -0.26 | 3.0
68 | C=CCc1ccc(OC(C)C(=O)NC(=O)NC)c(OC)c1 (configuration not stated) | x | 0.8
69 | CCc1ccccc1OC(=O)c1ccc2c(c1)OCO2 | x | -1.7
70 | Cc1c(C(=O)NN)sc2nc3n(c(=N)c12)CCC3 | 0.021 | 1.5
71 | N=C1C(c2ccccc2)=C(O)CN1CC1CCCO1 (configuration not stated) | 0.047 | 0.8
72 | Cn1cccc1CNCCN1CCOCC1 | 0.13 | 3.8
73 | Cn1c(C(=O)O)cc2cc(Cl)ccc21 | 0.38 | -1.7
74 | COC(=O)c1cccc(NC(N)=O)c1 | x | 0.6
75 | CC1CCCC(C)N1CC(O)Cn1cc(/C=N/NC(=O)c2ccncc2)c2ccccc21 (configuration not stated) | x | 1.8
76 | CCS(=O)(=O)c1ccc2oc(SCc3cn4ccccc4n3)nc2c1 | x | -0.9
77 | CCC(C)(C)C(=O)O[C@H]1C[C@@H](C)C=C2C=C[C@H](C)[C@H](CC[C@@H]3C[C@@H](O)CC(=O)O3)[C@H]21 | -0.46&-0.021&0.82&-0.31 | 0.4&-0.6
78 | CCN1C(=O)C(C(=O)NC(C)c2ccccc2)C2CC1(C)Oc1ccccc12 (configuration not stated) | 0.35 | 2.5
79 | CCNC(=S)N(Cc1ccccc1)Cc1nc2ccccc2c(=O)[nH]1 | 1 | -1.0
80 | CCOC(=O)c1oc2ccccc2c1CN1C(=O)c2ccccc2C1=O | x | -1.4
81 | N#CCCn1nc(-c2ccccc2)cc1C(=O)N/N=C/c1ccncc1 | x | -1.0
82 | CCc1ccc(-c2nc(SCC(=O)NC3(C#N)CCCCC3)n[nH]2)cc1 | x | 0.1
83 | S=c1[nH]c2ccccc2n1Cc1ccccc1Cl | x | -0.6
84 | CC(=O)Nc1ccc2c(CSc3nnc4nc(C)cc(C)n34)cc(=O)oc2c1 | x | 2.6
85 | CCN(CC(=O)NCc1ccc(F)cc1)C(=O)c1cn(CC)c2nc(C)ccc2c1=O | x | 0.2
86 | CCc1n[nH]c2c1/C(=N\O)CC(C)(C)C2 | 0.4 | 3.9
87 | Cn1nccc1NS(=O)(=O)c1ccc(NC(=O)C(F)(F)F)cc1 | -0.34 | 2.8
88 | CCCSc1nc2c(c(=O)n1-c1ccccc1)SCC2 | 0.47 | 1.3
89 | CCCc1cc(-n2cnc3ccccc32)n2c(nc3ccccc32)c1C#N | x | 18
90 | O=c1c2ccccc2ncn1Cc1ccccc1 | x | -1.2
91 | CC1CN(C(=O)COC(=O)c2ccc3c(c2)C(=O)N(c2ccc(Cl)cc2)C3=O)CC(C)O1 (configuration not stated) | x | 3.1
92 | N#Cc1c(N2C(=O)CCC2=O)sc2c1CCCC2 | x | 1.2
93 | O=C(/C=C/c1ccccc1)Nc1ccc(O)cc1 | x | 20
94 | N#CC1=C(N)OC2=C(C(=O)CCC2)C1CCc1ccccc1 (configuration not stated) | 0.36 | 1.0
95 | CCCc1cc(=O)oc2cc(C)cc(OC(=O)c3ccco3)c12 | -0.96 | 3.4
96 | O=C(CN1C(=O)C2C3C=CC(C3)C2C1=O)N1CCSC1=NCCc1ccccc1 (configuration not stated) | x | -0.7
97 | CCc1cc(C(N)=S)ccn1 | -0.17&-0.08&-0.8 | 0.7&-2.7
98 | COc1ccc(C2=NS(=O)(=O)N(C)C(C(=O)N3C(C)CCCC3C)=C2)cc1 (configuration not stated) | -0.047 | 3.8
99 | CC1=CS(=O)(=O)CC1Sc1ncn[nH]1 (configuration not stated) | 1.2 | -0.9
100 | CC(OC(=O)NC1CCCCC1)c1cc2ccccc2o1 (configuration not stated) | x | 0.0

Carrying on.
# | canonical_smiles | KSHV LANA nucl | BasE inh
101 | COc1ccc(NC(=S)N(CCCN2CCOCC2)Cc2ccccn2)cc1 | 0.59 | 0.8
102 | Cc1ccc(NC(=O)CN(C)C(=O)CSc2n[nH]c(=O)n2Cc2ccccc2)cc1 | x | 0.2
103 | COc1ccc(CNC(=S)NCCO)cc1 | x | -0.3
104 | Cc1ccc(C)c(OCCCC(=O)Nc2ccc(N3CCOCC3)cc2)c1 | -0.7 | 23
105 | Cn1cc(P(=S)(N2CCOCC2)N2CCOCC2)cc1P(=S)(N1CCOCC1)N1CCOCC1 | x | 0.8
106 | O=C1NC(c2ccccn2)Nc2sc3c(c21)CCCC3 (configuration not stated) | x | 3.1
107 | CCn1c(Cc2ccccc2)nnc1SCC(=O)c1ccc2c(c1)OCO2 | x | -0.6
108 | CCN(C(=O)C12CCC(C)(C(=O)C1)C2(C)C)c1ccccc1 (configuration not stated) | 0.34 | 1.5
109 | O=C(Nc1cccc(Cl)c1Cl)N1CCCN(Cc2ccc(F)cc2)CC1 | x | -0.4
110 | O=c1ccc2ccc(O)cc2o1 | -0.19 | 2.1
111 | COc1ccc2c(c1)NC(c1cccnc1)=NC(c1ccccc1)=N2 | 0.63 | 16
112 | CC1CC(CC(=O)NNc2nc(-c3ccccc3)cs2)C(=O)O1 (configuration not stated) | -0.047 | -0.4
113 | COc1cccc(-c2cc(C(=O)Nc3cnn(C45CC6CC(CC(C6)C4)C5)c3)on2)c1 | -0.69 | -0.4
114 | N#CCOC(=O)c1ccc2c(c1)S(=O)(=O)c1ccccc1C2=O | x | 3.4
115 | CSc1nnc(-c2ccncc2)n1C | 1 | -0.2
116 | CCN(CC(=O)NC1CCCCCC1)S(=O)(=O)c1ccc(Cl)cc1 | -0.76 | 2.8
117 | Cn1nnnc1SCc1cccc(S(=O)(=O)N2CCOCC2)c1 | x | -0.1
118 | O=C(NCc1ccc(Cl)cc1)NC1CCCCC1 | x | 1.2
119 | COc1ccc2oc(C(=O)OCC(=O)c3ccc4c(c3)OCO4)c(C)c2c1 | x | -1.3
120 | C=CCN(CC=C)Cc1ccc(C(=O)OC)o1 | 0.69 | 3.1
121 | O=C(NCCCn1ccnc1)C1(c2cccs2)CCOCC1 | 0.82 | 0.6
122 | O=C(NC1CC1)c1cccc(C(F)(F)F)c1 | x | 1.2
123 | COc1ccccc1OCCC(=O)C(C#N)c1nc2ccccc2[nH]1 (configuration not stated) | x | -3.3

Source: PubChem

These rows are one share of the data. The share of hits here may be higher or lower than overall.
